HDAC3 inh: human HDAC3 inhibition; 0.15% of 320,000 active; recombinant HDAC3, fluorogenic peptide/trypsin coupled, fluorescence; O15379; AID 2718; inhibition, % at 8.3 µM; in the data active means inhibition above about 26%, passing the limit was not always enough
AI-2 QS mod: modulates the Vibrio harveyi AI-2 quorum sensing system; Vibrio harveyi JMH597 AI-2 luminescence/OD600 ratio, 9 h; hits give low values; strain lacks LuxN and CqsS sensors; 0 = neutral-control median; 0.4% of 300,000 active; activity change, % at 7.5 µM; in the data active means activity change below about -75%, passing the limit was not always enough;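 further: luminescence divided by OD600 gain over 9 h not by final OD600 alone; inactives centre near 13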
HSP90 inh: inhibitors of HSP90 luciferase refolding in rabbit reticulocyte lysate; luciferase refolding luminescence, 3 h; inhibition, % at 5.6 µM; 0.91% of 290,000 active;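 active means inhibition above the screen-wide mean plus 3 SD, computed separately per campaign, cut at about 16% in these data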;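 further: 0% = DMSO wells and 100% = 60 µM geldanamycin wells; inhibitors lower the luminescence because luciferase stays unfolded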
KLF5 inh: inhibitors of KLF5 expression; DLD-1 KLF5 promoter-luciferase reporter, luminescence; inhibition, % at 5 µM; 0.23% of 290,000 active;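 active means inhibition above a per-plate limit of that plate's mean compound inhibition plus 3 SD, cut at about 60% in these data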;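 further: 0% = DMSO wells and 100% = LY294002 at 200 µM; higher means less KLF5 promoter-driven luciferase light; inactives centre near -14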
IEC-6 tox: IEC-6 cytotoxicity, counter-screen for KLF5 inhibitors. luminescence viability. inhibition, % at 5 µM. 0.78% of 290,000 active. AID 1825; in the data active means inhibition above about 22%;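 further: 0% = plate median of test compound wells and 100% = cytotoxic reference compound wells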
Numbers without * were called inactive. An excerpt; rates above refer to the full screens.

`CCC(CO)NC(=O)C1C=C2c3cccc4[nH]cc(c34)CC2N(C)C1` (stereo unspecified) gave HDAC3 inh -69, AI-2 QS mod 7, HSP90 inh 1, KLF5 inh -1 and IEC-6 tox -3.
CCOC(=O)c1cncn1C(C)c1ccccc1 (stereo unspecified) was read as HDAC3 inh 0, AI-2 QS mod 27, HSP90 inh -4, KLF5 inh -15 and IEC-6 tox -3.
CCN1c2nc3c(C)cccn3c(=O)c2CC2(C(=O)N(C)C(=O)N(C)C2=O)C1C (stereo unspecified) was read as HDAC3 inh -42, AI-2 QS mod 49, HSP90 inh 1, KLF5 inh -16 and IEC-6 tox 1.
For CN(C)C1C(=O)C(C(N)=O)=C(O)C2(O)C(=O)C3=C(O)c4c(O)cccc4C(C)(O)C3CC12 (stereo unspecified) the results were HDAC3 inh 1, AI-2 QS mod -37, HSP90 inh -3, KLF5 inh -16 and IEC-6 tox -3.
Cn1nnc(CC[N+](C)(C)C)n1 was read as HDAC3 inh 3, AI-2 QS mod 18, HSP90 inh 5, KLF5 inh -34 and IEC-6 tox 2.
`O=c1[nH]c2ccccc2n1CCCN1CCC(n2c(=O)[nH]c3cc(Cl)ccc32)CC1` gave HDAC3 inh -1, AI-2 QS mod 12, HSP90 inh -1, KLF5 inh 0 and IEC-6 tox 1.
`[Cl][Pt+2][Cl].[NH-]C1CCCCC1[NH-]` (stereo unspecified) gave HDAC3 inh -6.
Cc1ccc(S(=O)(=O)N(C)c2ccc(C(=O)NCC3(N(C)C)CCCCC3)cc2)cc1 was read as HDAC3 inh -2, AI-2 QS mod 16, HSP90 inh -1, KLF5 inh -4 and IEC-6 tox 0.

Structural class: the entries above containing a halogen.
`O=c1[nH]c2ccccc2n1CCCN1CCC(n2c(=O)[nH]c3cc(Cl)ccc32)CC1` gave HDAC3 inh -1, AI-2 QS mod 12, HSP90 inh -1, KLF5 inh 0 and IEC-6 tox 1.
`[Cl][Pt+2][Cl].[NH-]C1CCCCC1[NH-]` (stereo unspecified) gave HDAC3 inh -6.

Molecules shown so far that contain a Cl atom, in the order listed:
`O=c1[nH]c2ccccc2n1CCCN1CCC(n2c(=O)[nH]c3cc(Cl)ccc32)CC1` gave HDAC3 inh -1, AI-2 QS mod 12, HSP90 inh -1, KLF5 inh 0 and IEC-6 tox 1.
`[Cl][Pt+2][Cl].[NH-]C1CCCCC1[NH-]` (stereo unspecified) gave HDAC3 inh -6.
